total CFTR: total CFTR protein upregulators, primary screen, cell-based, HeLa F508del-CFTR, immunofluorescence, viability (AID 1224863) | 0.1% of 10,000 active | calls, or highest fold increase where a dose series was run | HeLa F508del-CFTR, immunofluorescence total CFTR, 24 h; by the record results were divided by relative cell number; some inactives read as strong as hits; in the data nearly all actives have a first-pass fold increase above 1.5; a few of its hits are not listed in these tables;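 note: total CFTR protein by anti-CFTR immunofluorescence in fixed cells; first pass at 25 µM or 10 µg/mL by library and series up to twice that; 1 = untreated cells; first-pass hits also needed half or more of the cells alive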
total CFTR fold 25 µM: also measured in total CFTR; calls as there; fold increase; measured here: primary screen single dose 25 uM; library dosed in µM
total CFTR fold 10 ug/mL: second read-out of total CFTR, no call of its own (marks repeat the call); fold increase; measured here: primary screen 10 ug/mL
total CFTR viability 25 µM: second read-out of total CFTR, no call of its own (marks repeat the call); viability, %; measured here: primary viability 25 uM; library dosed in µM;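 0% = killed and 100% = untreated cells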
total CFTR viability 10 ug/mL: recorded beside total CFTR, whose call it bears; viability, %; measured here: primary viability 10 ug/mL;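 0% = killed and 100% = untreated cells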
* hit, by the source's call; i = inactive; nt = not tested or not shown; & = joins results of further samples. The list is partial. The share of hits here may be higher or lower than overall.

SMILES	total CFTR	total CFTR fold 10 ug/mL	total CFTR viability 10 ug/mL	others
CC1CCCCN1C(=O)CN1C(=O)NC2(CCCc3sccc32)C1=O (stereo unspecified)	i	1	93
CC(Sc1n[nH]c(CCC2CCCC2)n1)c1nnnn1-c1ccccc1 (stereo unspecified)	i	0.88	88
CN(CCC#N)C(=O)Cn1ncc(Br)c(Br)c1=O	i	1.1	77
O=[N+]([O-])c1cnc(SCc2ccc(Cl)cc2)nc1NC1CC1	i	0.98	80
Cc1cc(C)n2c(=S)n(CN3CCN(Cc4cccs4)CC3)nc2n1	i	1	96
O=C(Nc1ccc2nc(N3CCOCC3)sc2c1)NC1CCCC1	i	0.95	84
COc1ccc(NC(C)c2nc(-c3ccco3)no2)cc1 (stereo unspecified)	i	1	85
NCc1cc2cc(F)ccc2s1	i	1.1	101
S=c1n(CN2CCc3ccccc3C2)nc2ccccn12	i	1	83
FC(F)(F)c1cnc(N2CCN(Cn3cnc4ccccc43)CC2)c(Cl)c1	i	1.1	97
CN(Cc1nc2ccccc2n1C(F)F)Cn1ncc2ccccc2c1=O	i	0.92	102
C[C@]12CCC(=O)C=C1CCC1C2C(=O)C[C@@]2(C)C1CC[C@]2(O)C(=O)CO (stereo partly specified)	i	nt	nt	total CFTR fold 25 µM=1.1;total CFTR viability 25 µM=78
CC(C)(C)c1ccc(C(=O)CN2C(=O)NC(C)(c3ccc4c(c3)OCO4)C2=O)cc1 (stereo unspecified)	i	1	86
CC(=O)NC12CC3CC(C1)CC(C(=O)OCc1c(C)cc(C(C)(C)C)cc1C)(C3)C2	i	0.95	86
CN(Cc1ccc(-c2ccc(Br)cc2)o1)S(=O)(=O)N1CCCCC1	i	1.1	85
CN(CC(=O)O)C(=O)OC(C)(C)C	i	1	87
CC(C)(C)OC(=O)N1CCN(Cc2ccc(-n3cccn3)cc2)CC1	i	0.9	102
COc1cc(Br)c(S(=O)(=O)NCC2CCCc3ccccc32)cc1OC (stereo unspecified)	i	0.87	81
Cc1[nH]c2ccccc2c1C(=O)C(C)OC(=O)C12CC3CC(C1)CC(c1ccccc1)(C3)C2 (stereo unspecified)	i	0.91	85
Cc1noc(C)c1S(=O)(=O)N1CCN(C(=O)C2CCC2)CC1	i	1.1	116
CC(C)(C)c1ncc(C(=O)O)s1	i	1	100
CC(C(N)=O)N(C)CC12CC3CC(CC(C3)C1)C2 (stereo unspecified)	i	0.94	94
CSCc1nnc(Sc2ncnc3sc4c(c23)CCC4)o1	i	0.95	88
NCc1ccc(OCC2CCCO2)cc1 (stereo unspecified)	i	1.1	94

The closing three records of the part above come first, to join the parts.
SMILES	total CFTR	total CFTR fold 10 ug/mL	total CFTR viability 10 ug/mL	others
CC(C(N)=O)N(C)CC12CC3CC(CC(C3)C1)C2 (stereo unspecified)	i	0.94	94
CSCc1nnc(Sc2ncnc3sc4c(c23)CCC4)o1	i	0.95	88
NCc1ccc(OCC2CCCO2)cc1 (stereo unspecified)	i	1.1	94
N#Cc1c(/C=C/c2cccc(Cl)c2)cc(-c2ccc(Cl)cc2)n2c1nc1ccccc12	1.4	2.7	91
CS(=O)(=O)c1ccc(S(=O)(=O)N2CCCc3cc(F)c(F)cc32)cc1	i	1	80
CCN(Cc1ccc(Cl)s1)Cn1nc(-c2cccs2)oc1=O	i	0.97	100
C#CCN(C1CCc2ccccc21)S(=O)(=O)c1ccccc1Cl (stereo unspecified)	i	1	81
COC(=O)/C(=C(/O)CSc1nnc(CSC)o1)c1nc2ccccc2[nH]1	i	0.97	91
C#CCNC(=O)CN1CCN(S(=O)(=O)N2CCC(C)CC2)CC1	i	1.1	99
N#Cc1cc2c(nc1SCc1cc([N+](=O)[O-])cc3c1OCOC3)CCCC2=O	i	0.96	97
O=S(=O)(NC1CCN(C2CC2)CC1)c1c(Cl)cccc1Cl	i	1	110
NC(=O)CCn1c(C2CC2)n[nH]c1=S	i	1	114
Nc1nccnc1C(=O)OCC(=O)Nc1c(F)c(F)c(F)c(F)c1F	i	0.96	102
C/C=C(/C(=C/C)c1ccc(O)cc1)c1ccc(O)cc1	i	nt	nt	total CFTR fold 25 µM=0.77;total CFTR viability 25 µM=80
CCCn1c(N)c(C(=O)CN(C)Cc2sccc2C)c(=O)n(C)c1=O	i	0.98	103
O=[N+]([O-])c1cc(S(=O)(=O)N2CCOCC2)ccc1SC12CC3CC(CC(C3)C1)C2	i	0.94	94
CCOC(=O)[C@H](CCc1ccccc1)N[C@@H](C)C(=O)N1CCC[C@H]1C(=O)O	i	nt	nt	total CFTR fold 25 µM=1.1&0.94&1.1;total CFTR viability 25 µM=82&100&70
O=C(O)c1ccccc1-c1c2cc(I)c(=O)c(I)c-2oc2c(I)c(O)c(I)cc12	i	nt	nt	total CFTR fold 25 µM=1.1;total CFTR viability 25 µM=91
CC1(C2CC2)NC(=O)N(CN2CCN(Cc3ccc4c(c3)OCO4)CC2)C1=O (stereo unspecified)	i	1	84
COCCCN(C(=O)CSC)c1c(N)n(CC(C)C)c(=O)[nH]c1=O	i	1.1	96
Cc1ccc(-c2noc(CN3C(=O)NC(C)(Cc4ccc5c(c4)OCO5)C3=O)n2)cc1 (stereo unspecified)	i	0.98	75
CCOC(=O)C1=C(CN2CCCCCC2)NC(=O)NC1CC (stereo unspecified)	i	1.1	108
CCC1(C)OC(=O)N(C)C1=O (stereo unspecified)	i	nt	nt	total CFTR fold 25 µM=1.1;total CFTR viability 25 µM=112
CC(C)(C)NCC(=O)O	i	0.96	91
CO[C@H]1/C=C/O[C@@]2(C)Oc3c(C)c(O)c4c(O)c(c(/C=N/N5CCN(C6CCCC6)CC5)c(O)c4c3C2=O)NC(=O)/C(C)=C\C=C\[C@H](C)[C@H](O)[C@@H](C)[C@@H](O)[C@@H](C)[C@H](OC(C)=O)[C@@H]1C	i	nt	nt	total CFTR fold 25 µM=1;total CFTR viability 25 µM=84
N#Cc1c(N)cc(N)nc1SCc1ccc(Cl)s1	i	0.95	74
CN(Cc1ccc(Cl)s1)C(=O)CC1CC2CCC1C2 (stereo unspecified)	i	0.85	81

Of the compounds above, 6 have a tert-butyl group.
SMILES	total CFTR	total CFTR fold 10 ug/mL	total CFTR viability 10 ug/mL	others
CC(C)(C)c1ccc(C(=O)CN2C(=O)NC(C)(c3ccc4c(c3)OCO4)C2=O)cc1 (stereo unspecified)	i	1	86
CC(=O)NC12CC3CC(C1)CC(C(=O)OCc1c(C)cc(C(C)(C)C)cc1C)(C3)C2	i	0.95	86
CN(CC(=O)O)C(=O)OC(C)(C)C	i	1	87
CC(C)(C)OC(=O)N1CCN(Cc2ccc(-n3cccn3)cc2)CC1	i	0.9	102
CC(C)(C)c1ncc(C(=O)O)s1	i	1	100
CC(C)(C)NCC(=O)O	i	0.96	91

Following part:
SMILES	total CFTR	total CFTR fold 10 ug/mL	total CFTR viability 10 ug/mL	others
Fc1cccc(F)c1/C=C/c1nc2ccccc2s1	i	1	93
CCOC(=O)c1c(C)[nH]c(C)c1C(=O)COC(=O)c1csc2c1CCCC2	i	1	88
CSc1cc(C(=O)O)ccn1	i	1.1	94
CCCn1nccc1NC(=O)C1(C)CC1(Cl)Cl (stereo unspecified)	i	0.9	86
O=C1c2ccccc2C(=O)N1Cc1cnn(-c2ccccc2)n1	i	1.1	103
CN1/C(=C/C=C2\N=C(c3ccc(-c4ccccc4)cc3)OC2=O)C(C)(C)c2ccccc21	i	1	94
O=C(OCC(=O)N1CCNC1=O)c1ccc(Br)cc1F	i	1.1	102
Cc1sc2ncnc(N3CCOC(C)C3)c2c1C (stereo unspecified)	i	0.88	89
CNc1cc(C)ccc1C	i	0.99	96
NC(=O)C1CCN(CN2C(=O)CC3(CCCC3)C2=O)CC1	i	0.98	104
CSc1ncc(Cl)c(C(=O)NCCNc2ncc(Cl)cc2Cl)n1	1.2	1.1	60
CC(C)CCNC(=O)c1cc(Br)c[nH]1	i	1	90
Cc1oc(C)c(C(=O)OCn2nnc3ccccc3c2=O)c1C	i	1	97
O=c1[nH]c(=O)n([C@H]2C[C@H](O)[C@@H](CO)O2)cc1C(F)(F)F	i	nt	nt	total CFTR fold 25 µM=1.2;total CFTR viability 25 µM=89
CC1CC1C(=O)NCCC(=O)N(C)CC(=O)NC(C)(C)C (stereo unspecified)	i	0.98	98
CC1(C2CC2)NC(=O)N(CC(=O)Nc2ccc3c(c2)OC(F)(F)O3)C1=O (stereo unspecified)	i	1.1	94
CCOC(=O)c1c(C)[nH]c(C(=O)OCC(=O)OC)c1C	i	1.1	81
CCCS(=O)(=O)NC1CCN(c2ncccc2[N+](=O)[O-])CC1	i	1.1	100
O=C(C1CCCNC1)N1CCOCC1 (stereo unspecified)	i	1	104
N#C/C(=C/c1cccs1)c1nc(-c2cccs2)no1	1.4	1.6	95
COc1cc(C#N)ccc1OCC1CCCO1 (stereo unspecified)	i	0.99	93
COc1ccc(C2c3c(C)nn(-c4ccccc4)c3N=C3N(Cc4ccccc4)c4ccccc4N32)cc1 (stereo unspecified)	i	0.91	82
Cc1cccc(C)c1NC(=O)c1ccccc1C(=O)O	i	nt	nt	total CFTR fold 25 µM=1.1;total CFTR viability 25 µM=85
Nc1nc(SCCOc2ccccc2)nc2sc3c(c12)CCCCC3	i	1.2	115

The final 3 entries of the part before come first, to join the parts.
SMILES	total CFTR	total CFTR fold 10 ug/mL	total CFTR viability 10 ug/mL	others
COc1ccc(C2c3c(C)nn(-c4ccccc4)c3N=C3N(Cc4ccccc4)c4ccccc4N32)cc1 (stereo unspecified)	i	0.91	82
Cc1cccc(C)c1NC(=O)c1ccccc1C(=O)O	i	nt	nt	total CFTR fold 25 µM=1.1;total CFTR viability 25 µM=85
Nc1nc(SCCOc2ccccc2)nc2sc3c(c12)CCCCC3	i	1.2	115
NC(=O)CCc1n[nH]c(=S)n1C1CC1	i	1.1	108
Cc1occc1-c1nnc(SCCSc2ccccc2F)n1C	i	0.9	88
O=c1c2ccsc2ncn1Cc1csc(-c2cccs2)n1	i	0.87	92
C[N+](C)(C)CC(=O)[O-]	i	nt	nt	total CFTR fold 25 µM=0.83;total CFTR viability 25 µM=76
Cc1cc(O)c(CN(C)C2CCS(=O)(=O)C2)cc1C(C)C (stereo unspecified)	i	0.99	93
CC(C)(C)NC(=O)Nc1ccc(N2CCOCC2)cc1N1CCOCC1	i	1	106
CC1(c2cc(F)ccc2F)NC(=O)N(Cc2cc(=O)oc3cc4c(cc23)CCC4)C1=O (stereo unspecified)	i	1	89
CCC(C)(C)NS(=O)(=O)Cc1ccc(C#N)cc1	i	1	90
Cc1c(C(=O)N(C)C2CCCCC2)sc2nc3n(c(=O)c12)CCC3	i	0.98	89
C=CCNc1nnc(SC(C)C(=O)NC23CC4CC(CC(C4)C2)C3)s1 (stereo unspecified)	i	0.93	92
O=C(O)COCCN1CCN(C(c2ccccc2)c2ccc(Cl)cc2)CC1 (stereo unspecified)	i	nt	nt	total CFTR fold 25 µM=1&1&1;total CFTR viability 25 µM=104&86&99
Cc1cc(NC(=O)C2=C(O)c3ccccc3S(=O)(=O)N2C)no1	i	nt	nt	total CFTR fold 25 µM=1.1;total CFTR viability 25 µM=88
O=C(NC1CCC(C(F)(F)F)CC1)C1CCCC1 (stereo unspecified)	i	1	94
CCOC(=O)c1c(C)[nH]c(C(=O)OCCCC#N)c1C	i	1.1	90
